NS1 inh: influenza NS1 inhibition | S. cerevisiae slowed by influenza A NS1, growth recovery by OD600 | Potency, µM (doses to about 46.1 µM), for the others: top-dose activity, positive = more growth | 270,000 tested, 0.4% active; note: actives are rising curves; nearly all actives have a fitted effect of over 50% in size
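S. cerevisiae expressing influenza A NS1, grown in glucose, washed, then diluted 1:100 into pH 6.0 -URA galactose medium with 23 nl compound. Growth recovery read as OD600; NS1-free strain serves as control.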
Cruzain noTriton: cruzain (T. cruzi) inhibition without detergent; P25779; purified cruzain, Z-FR-AMC fluorescence, no detergent; Potency, µM, for the others: max response, negative = inhibition, usual class: inhibitors; 200,000 tested, 2.3% active; active = well fitted curve in the direction sought with a large enough effect; inconclusive = small, poorly fitted or top-dose-only effect, or another doubt; inactive = no such curve, though single readings can be large; an effect the other way counts as inactive or inconclusive;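 note: plate controls were enzyme without inhibitor for no effect and buffer without enzyme for full effect; nearly all actives have a fitted effect of over 40% in size; top concentration of the series not given in the record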
Target sequence (P25779 123-467 limits assumed): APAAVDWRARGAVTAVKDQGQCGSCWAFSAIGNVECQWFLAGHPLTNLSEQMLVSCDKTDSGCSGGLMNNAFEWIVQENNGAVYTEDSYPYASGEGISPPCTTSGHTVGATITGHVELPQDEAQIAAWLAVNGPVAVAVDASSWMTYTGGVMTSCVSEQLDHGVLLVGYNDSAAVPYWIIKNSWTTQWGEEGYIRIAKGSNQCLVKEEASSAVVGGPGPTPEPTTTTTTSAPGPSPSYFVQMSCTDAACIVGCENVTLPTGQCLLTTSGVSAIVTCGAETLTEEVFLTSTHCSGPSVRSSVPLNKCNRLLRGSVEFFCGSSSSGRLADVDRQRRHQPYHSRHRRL
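Detergent-free condition (0.00005% Triton X-100) in acetate buffer pH 5.5 with DTT. 1.5 nM enzyme and compound were pre-mixed 15 min, then 2 uM Z-FR-AMC substrate added; reaction progress from fluorescence change between first and third reads (60 s).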
RE007 growth inh: less growth of the S. pombe RE007 Vpr strain. 360,000 tested, 0.21% active. Potency, µM (doses to about 92.2 µM), for inactives: top-dose activity change, negative = less growth. S. pombe RE007 Vpr strain, BacTiter-Glo ATP luminescence, 24 h; control for the full effect not named in the record; active = well fitted falling curve with a large enough effect; inconclusive = small, poorly fitted or top-dose-only effect; inactive = no such curve, though single readings can be large or run the other way;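 note: % is set by controls: 0 for no effect and ±100 for the full control effect; nearly all actives have a fitted effect of over 50% in size; the assay follows cell death caused by Vpr and the record does not say whether a fall means rescue or toxicity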
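Fission yeast RE007 carrying one integrated HIV-1 vpr copy, seeded at OD 0.01 in PMG+AL medium with 23 nL pinned compound. Grown 24 h at 30 degrees; viability read by BacTiter-Glo luminescence after 5 min.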
Cruzain Triton: cruzain (T. cruzi) inhibition with detergent. P25779. purified cruzain, Z-FR-AMC fluorescence, 0.01% Triton. Potency, µM, inactives show max response, negative = inhibition, hits mostly inhibitors. 200,000 tested, 0.43% active. AID 1478; active = well fitted curve in the direction sought with a large enough effect; inconclusive = small, poorly fitted or top-dose-only effect, or another doubt; inactive = no such curve, though single readings can be large; an effect the other way counts as inactive or inconclusive;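 note: plate controls were neutral wells for no effect and buffer without enzyme for full effect; nearly all actives have a fitted effect of over 40% in size; top concentration of the series not given in the record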
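Read-out: AMC fluorescence (360 nm excitation, 450 nm emission), four reads over 2 min, first-to-third difference used. Conditions: cruzain 1.5 nM, Z-FR-AMC 2 uM, pH 5.5 acetate, 5 mM DTT, 0.01% Triton X-100.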
SARS PLP yeast: SARS-CoV PLP inhibition in yeast | S. cerevisiae expressing SARS-CoV PLpro, growth rescue; control for the full effect not named in the record | AID 485353 | Potency, µM (doses to about 32.9 µM), for inactives: at the top dose activity, positive = growth rescue | 330,000 tested, 0.19% active; note: 0% is about no effect; nearly all actives have a fitted effect of over 55% in size; growth read by luminescence after 48 h
StopGo reporter: FMDV 2A StopGo reporter, luciferase signal | human cells with a luciferase reporter of 2A StopGo recoding; control for the full effect not named in the record | Potency, µM (titrated, usually from 57.9 µM), for inactives: at the top dose signal change, negative = less light | AID 1159524 | 410,000 tested, 1.2% active; active = well fitted falling curve with a large enough effect; inconclusive = small, poorly fitted or top-dose-only effect; inactive = no such curve, though single readings can be large or run the other way; tested in HEK293T cells; note: % is set by controls: 0 for no effect and ±100 for the full control effect; nearly all actives have a fitted effect of over 45% in size; luciferase light after 4 h
LASV entry inh: inhibitors of Lassa virus binding or cell entry | AID 540256 | 300,000 tested, 1.2% active | Potency, µM (titrated, usually from 37.9 µM), without a hit: at the highest dose activity change, negative = inhibition, usual class: inhibitors | Lassa virus pseudotype entry inhibition, cell reporter; control for the full effect not named in the record; active means well fitted inhibition curve with a large enough effect; inconclusive means small, poorly fitted or top-dose-only effect, or effect the other way; inactive means flat fitted curve, though single readings scatter; tested in HEK293 cells; note: % is set by controls: 0 for no effect and ±100 for the full control effect; nearly all actives have a fitted effect of over 50% in size; luciferase read-out
Marburg entry inh: inhibitors of Marburg virus binding or cell entry | Marburg virus pseudotyped entry inhibition, cell reporter; control for the full effect not named in the record; about a third of the inactives were read at about 46 µM | Potency, µM (highest dose often 37.8 µM), for inactives: at the top dose activity change, negative = inhibition, usual class: inhibitors | 300,000 tested, 1.8% active; active = well fitted inhibition curve with a large enough effect; inconclusive = small, poorly fitted or top-dose-only effect, or effect the other way; inactive = flat fitted curve, though single readings scatter; tested in HEK293 cells; about a fifth of its hits are not listed in these tables; note: % is set by controls: 0 for no effect and ±100 for the full control effect; luciferase read-out
* marks the source's active call; other numbers are inactive results; ? = inconclusive; nt = not tested or not shown; & = joins results of further samples; [ ] = dose if it differs, or a comment. Unless noted, calls come from the whole dose curve; as a rule, active means well fitted rising curve with a large enough effect; inconclusive means small, poorly fitted or top-dose-only effect; inactive means no such curve, though single readings can be large or run the other way. Potency is the fitted concentration of half-maximal effect.

SMILES	NS1 inh	Cruzain noTriton	RE007 growth inh	Cruzain Triton	SARS PLP yeast	StopGo reporter	LASV entry inh	Marburg entry inh
CN1c2ccc(Cl)cc2C(=O)NC1C1CC=CCC1 (stereo not drawn)	-6%	nt	8%	nt	23%	5%	0%	?
O=c1[nH]ncn1-c1ccccc1	-1%	nt	-5%	nt	0%	4%	8%[46.1 µM]	17%[46.1 µM]
Clc1ccccc1/C=N/NC1=Nc2cccc3cccc1c23	25%	?	8%	-5.8%	1%	36%[activator]	?	?
CN1CCCNc2nc3ccccc3nc21	-43%	nt	-11%	nt	-2%	39%[activator]	nt	nt
CC1CCN(C(=O)C2CCC(CNS(=O)(=O)c3cccc4cccnc34)CC2)CC1 (stereo not drawn)	-1%	13%	nt	-0.3%	-3%	nt	nt	nt
Cc1ccc(N(C(=O)c2csnn2)C(C(=O)NC2CCCCC2)c2ccccn2)cc1C (stereo not drawn)	0%	nt	-10%	nt	1%	3%	-22%	-1%[46.1 µM]
CCN=C1SC(CC(=O)Nc2ccc3c(c2)OCO3)C(=O)N1CC (stereo not drawn)	1%	nt	0%	nt	-1%	-23%	1%	-8%[46.1 µM]
CCOC(=O)c1c(C)[nH]c(C(=O)COC(=O)c2ccncc2)c1C	5%	-8%	16%	-1.6%	-4%	17%	0%	-21%[46.1 µM]
Cc1cccc2nc(COc3ccc(Cl)c4cccnc34)cn12	-30%	nt	?	nt	-1%	14%	?	-4%[46.1 µM]
Nn1c(Nc2ccccc2)nc2ccccc21	-17%	9%	-1%	6.2%	-4%	68%[activator]	27%	9%
Cc1ccc(/C=C(\C#N)c2nc(-c3cc4c(ccc5ccccc54)oc3=O)cs2)cc1	nt	14%	nt	4.0%	nt	-10%	4%[46.1 µM]	nt
COc1ccc(N(C)C(=O)CCS(=O)(=O)c2cccc3nonc23)cc1	2%	-8%	-1%	-3.8%	nt	-6%	?	23%&23%
CCOc1ncccc1C(=O)OCC(=O)N(CC)c1ccccc1	nt	nt	-7%	nt	-7%	-11%	-5%	?
CC(=O)CSc1nc2c(c(=O)[nH]c(=O)n2C)n1Cc1cccc(Br)c1	25%	nt	-2%	nt	2%	-19%	-16%[46.1 µM]	-15%[46.1 µM]
O=C(O)c1ccc2c(c1)C(=O)/C(=C/c1ccccc1)C2=O	18%	0%	3%	-7.1%	5%	8%	?	2%
Cc1ccc(CC2CC(=O)N(c3ccc4c(c3)OCCO4)C2=O)cc1 (stereo not drawn)	-5%	2%	6%	-0.2%	-3%	-10%	-10%	11%[46.1 µM]
CC(CCc1ccco1)NC(=O)CCc1nnc2ccc(NCc3ccc(Cl)cc3)nn12 (stereo not drawn)	4%	nt	-3%	nt	?	-17%	nt	nt
COC(=O)CSc1nc(C)cc(Oc2ccccc2)n1	-99%	-1%	5%	1.1%	-5%	-1%	nt	nt
Nc1nc(=O)n(C2CC(O)C(CO)O2)cc1F (stereo not drawn)	nt	nt	15%	nt	nt	8%	?	?
CCOc1ccccc1NC(=O)COC(=O)c1cc(C)oc1C	nt	nt	2%	nt	-2%	-8%	9%	8%
O=c1c2c3c(sc2nnn1Cc1ccc(F)cc1)CCCC3	nt	-8%	nt	-1.8%	nt	-2%	18%[46.1 µM]	nt
CCOc1ccccc1NC(=O)Cn1c(=O)n(Cc2ccc(OC)cc2)c(=O)c2oc3ccccc3c21	nt	-12%	nt	0.1%	nt	-16%	13%[46.1 µM]	nt
NC/C=C\C(=O)O	-6%	-4%&4%	nt	2.0%&-0.6%	nt	0%&-17%	?	?
Cc1ccccc1C(=O)NC(=S)NCC(=O)c1ccccc1	5%	-6%	4%	-4.3%	-8%	26%	-12%	2%
Cc1ccc(C(=O)CNc2ccccc2C)cc1	-60%	-3%	-24%	2.3%	-22%	20%	-15%	23%

Additional entries.
SMILES	NS1 inh	Cruzain noTriton	RE007 growth inh	Cruzain Triton	SARS PLP yeast	StopGo reporter	LASV entry inh	Marburg entry inh
CC(=O)Nc1cccc(-c2nc3ccccc3o2)c1	-38%	nt	-2%	nt	5%	40%[activator]	nt	nt
O=C(COC(=O)c1n[nH]c2ccccc12)NC1CCCCC1	nt	nt	2%	nt	-4%	18%	-2%	6%
CCOc1ccc(-c2c(=O)n(OCc3ccc([N+](=O)[O-])cc3)c3ccccc3[n+]2[O-])c(OCC)c1	nt	nt	5%	nt	nt	12%	-15%	-4%[46.1 µM]
O=C(CCCCn1c(=O)c2ccccc2n(CC(=O)Nc2ccc(F)cc2F)c1=O)NCCc1ccccc1	nt	-4%	nt	-2.7%	nt	-22%	-24%[46.1 µM]	-27%[46.1 µM]
CCOC(=O)N1CCN(C(=O)COC(=O)c2ccc(N(C)C)cc2)CC1	nt	nt	18%	nt	7%	-11%	2.5µM*	22%
CC(C)Cn1cc(NC(=O)N2CCN(c3ccc(F)cc3)CC2)c2ccccc2c1=O	nt	-3%	nt	-3.4%	nt	-24%	?	nt
Cc1oc(-c2ccccc2)nc1CC(=O)O	1%	3%	23%	-0.1%	3%	3%	9%	9%
COc1ccc(/C=C2/SC(=S)N(CCC(=O)O)C2=O)cc1	-12%	?	6%	-0.3%	-9%	?	51%[14.3 µM]	-30%
CC1CCC(NC(=O)c2ccc3c(c2)N(Cc2ccccc2F)C(=O)c2ccccc2S3(=O)=O)CC1 (stereo not drawn)	nt	-24%	nt	-1.6%	nt	24%	-8%[46.1 µM]	?
O=C(Nc1nnc(S(=O)(=O)N2CCCCCC2)s1)c1ccc(Br)cc1	-10%	?	7%	-7.2%	1%	-22%&-1%	-25%[46.1 µM]	nt
Cc1ccc(N(CC(=O)NCc2ccco2)C(=O)CCC(=O)Nc2ccccn2)c(C)c1	4%	nt	-14%	nt	0%	2%	nt	-13%[46.1 µM]
CCOc1ccc(NC(=O)CCn2cccc2)cc1	-2%	-9%	-3%	0.7%	-4%	21%	16%	1%
COc1ccc(C)c2sc(NC(=O)CCS(=O)(=O)c3ccccc3)nc12	7%	nt	9%	nt	0%	-17%	?	?
O=C1CC(C(=O)N2CCN(c3ccccc3)CC2)CN1Cc1ccccc1 (stereo not drawn)	nt	nt	-6%	nt	-4%	2%	-9%	24%
COc1ccc(S(=O)(=O)N2CCN(C(=O)c3sccc3-c3ccccc3)CC2)cc1	nt	nt	-4%	nt	-7%	-14%	-24%	?
COc1ccccc1C(=O)NCCC(=O)N1CCN(c2cccc(C(F)(F)F)c2)CC1	nt	nt	11%	nt	5%	0%	0%	9%
COC(=O)CC1Nc2ccccc2SC1=O (stereo not drawn)	-14%	13%	5%	9.0%	-5%	2%	9%	-5%
Nc1ncc(-c2ccccc2)n1CC1CCCO1 (stereo not drawn)	?	14%	-2%	5.8%	16%	-16%	?	?
CCN(CC)S(=O)(=O)c1ccc(C(=O)OC2CCCCC2CN(C)C)cc1 (stereo not drawn)	-1%	11%	0%	0.6%	-2%	23%	-2%	13%
CCC/C(=N/Nc1ccc(Cl)cc1)c1cnnc(-c2ccccc2)n1	nt	nt	-11%[3.69 µM]	nt	nt	-11%	-11%	?
CCOC(=O)C(NC(=O)Nc1ccccc1)(OCC)C(F)(F)F (stereo not drawn)	0%	6%	-8%	-1.9%	-2%	-9%	1%	?
COc1ccc(-c2c[n+]3c4n2CCCCC4=C(c2ccccc2)C3)cc1	-22%	9%	7%	-12%	-6%	22µM*	nt	nt
CCNC(=O)CSc1nc(-c2ccc(F)cc2)cs1	nt	nt	-1%	nt	-2%	55%[activator]	14%	6%
CNc1ccccc1C(=O)OC	1%	nt	-8%	nt	2%	-9%	nt	nt
CN(c1ccccc1)c1ccc(/C=C(\C#N)c2nnc3n2CCCCC3)cc1[N+](=O)[O-]	12%	2%	0%	-23%	10%	-8%	7.1µM*	?

(continued)
SMILES	NS1 inh	Cruzain noTriton	RE007 growth inh	Cruzain Triton	SARS PLP yeast	StopGo reporter	LASV entry inh	Marburg entry inh
CC(=O)c1ccc(OCc2cc(C(=O)N(C)CCOc3ccc(C)cc3)no2)cc1	-14%	nt	-5%	nt	-7%	0%	nt	nt
CCCCCC(=O)N/N=C(\C)c1ccc(Cl)cc1	14%	-5%	-21%	-2.6%	0%	-5%	-9%	15%
O=C(O)c1nsc(Cl)c1Cl	3%	3%	11%	2.2%	1%	1%	8%	-19%&-19%
O=C(NCc1ccccn1)C1CC(c2ccccc2O)=NO1 (stereo not drawn)	0%	nt	0%	nt	0%	-11%	?	-2%[46.1 µM]
CCN(CC)CCC(c1cc(OC)c(OC)c(OC)c1)c1c(OC)cc(OC)c2ccc(=O)oc12 (stereo not drawn)	1%	nt	-8%	nt	-1%	0%	nt	nt
Clc1ccc(-c2noc(CSc3nnc(-c4ccncc4)n3-c3ccccc3)n2)cc1	-2%	19%	10%	-4.8%	-9%	25µM*	-28%	?
Cn1cc[n+](C)c1COc1ccc(C=O)cc1	-11%	nt	-19%	nt	1%	13%	nt	nt
Cc1cccc(NC(=O)CSc2nc(-c3ccccc3Cl)nc3c2Cc2c(CO)cnc(C)c2O3)c1C	nt	0%	nt	0.1%	nt	-18%	3%[46.1 µM]	nt
O=C(CC1C(=O)NCCN1Cc1c(F)cccc1Cl)NCc1ccccc1 (stereo not drawn)	-4%	nt	0%	nt	-1%	-7%	-4%	12%[46.1 µM]
CCc1cc(C(=O)N/N=C/c2ccc(OC)cc2)c2ccccc2n1	-1%	nt	-4%	nt	1%	0%	?	?
O=c1c2cc(N3CCOCC3)ccc2[nH]c(=S)n1Cc1ccccn1	?	-15%	-7%	-8.7%	10%	11%	-3%	12%
CCC(Oc1ccccc1)C(=O)N(CC)CC(=O)NCc1ccc(F)cc1 (stereo not drawn)	nt	nt	-8%	nt	-4%	12%	2%[46.1 µM]	14%
NS(=O)(=O)c1ccc(NS(=O)(=O)c2ccc(NC(=S)Nc3ccccc3)cc2)cc1	-6%	-3%	-3%	-2.8%	-10%	13%	-2%	16%[46.1 µM]
CCOCCCNC(=O)C1CCCN(S(=O)(=O)c2ccc(-n3cnnn3)cc2)C1 (stereo not drawn)	4%	nt	9%	nt	2%	-7%	nt	1%[46.1 µM]
Cc1[nH]c2ccc(OC(F)(F)F)cc2c1CCN1C(=O)c2ccc(C(=O)O)cc2C1=O	-35%	nt	6%	nt	-5%	-15%	-1%[46.1 µM]	12%[46.1 µM]
O=C(NN=C1CCCCCCC1)c1ccccn1	-2%	0%	19%	-0.3%	-6%	37%[activator]	7%	?
Cc1ccc(NC(=O)CSc2nnc(C)n2CC2CCCO2)cc1 (stereo not drawn)	2%	nt	-2%	nt	3%	-15%	17%	6%

Screens: PubChem, National Center for Advancing Translational Sciences (NCATS)
